PINK1 modulator: modulators of PINK1 expression; Potency, µM (titrated, usually from 76.6 µM), for inactives: at the top dose activation (PINK1 increase), actives largely listed as activators; hit rate 0.2% among 410,000; PINK1 immunofluorescence, high-content cytometry, 24 h; active = well fitted activation curve with a large enough effect; inconclusive = small, poorly fitted or top-dose-only effect; inactive = flat fitted curve, though single readings scatter; cell line not stated here;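 note: potency is the fitted concentration of half-maximal effect; % of control where 0% means no effect; nearly all actives have a fitted effect of over 65% in size; a mitochondrial uncoupler was the plate control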
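Readout is PINK1 immunofluorescence, quantified alongside mitochondrial, cell and nuclear markers by laser-scanning microplate cytometry. Cells from a stable line were exposed to compound titrations (5 concentrations) for 24 hours, with CCCP controls.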
TRPML1 blocker: human mucolipin-1 channel inhibition | AID 624415 | hit rate 0.02% among 390,000 | activity change, negative = inhibition, % (no concentration beside the values) | TRPML1-inducible cells, Ca2+ dye fluorescence, FDSS; active compounds read low; inhibition of EC80 agonist-evoked calcium signal; in the data active means activity change below about -50%; inconclusive means about -30% to -50%; inactive means above about -30%;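 note: stimulus is agonist 54-4 at its EC80 concentration; % is set by controls: 0 for no effect and ±100 for the full control effect; compound concentration not given in the record; the text of the record puts the active cut at -80%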
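Tet-induced TRPML1-DL cells loaded with Ca8 no-wash calcium dye were read kinetically on FDSS. Compound addition was followed by EC80 agonist 54-4 (4 uM final); inhibition was read over 110 s.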
D2 ag: human D2 receptor agonism in beta-arrestin assay; hit rate 0.084% among 360,000; DiscoveRx PathHunter D2 beta-arrestin, luminescence, 90 min; 100% = 57 uM dopamine signal; P14416; activation, % (no concentration beside the values); in the data active = activation above about 40%; inconclusive = about 15% to 40%; inactive = below about 15%; note: compound concentration not given in the record; the text of the record calls up to 30% inactive
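Agonist mode: compounds alone added to overnight-plated D2 PathHunter cells for 90 min at 37 C, with 57 uM final dopamine (EC100) defining full response. Beta-arrestin recruitment detected by chemiluminescent reagent, read after 1 h at ambient temperature.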
CtBP-E1A blk: CtBP/E1A binding inhibition; AlphaScreen GST-E1A/His-CtBP binding, 1536-well; active compounds read low; control for the full effect not named in the record; activity change, % (no concentration beside the values); hit rate 0.49% among 340,000; in the data active means activity change below about -65%; inconclusive means about -30% to -65%; inactive means above about -30%; note: % is set by controls: 0 for no effect and ±100 for the full control effect
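Steps: dispense buffer (Tris pH 8.0, NaCl 300 mM, TCEP 1 mM, BSA, Tween 20); add 5X protein mix (GST-E1A, His-CtBP, 125 nM each); pin 23 nL compound; 2 h at 37 °C, dark; add 5X beads (50 ug/mL); 1 h; read.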
TRPML1 ag: human mucolipin-1 channel agonism; activation, % (concentration not given with the values); TRPML1-expressing cells, Ca2+ dye fluorescence, FDSS; host cell line not named in the record; reference of the full effect not given here; hit rate 0.12% among 410,000; Q9GZU1; in the data active = activation above about 50%; inconclusive = about 30% to 50%; inactive = below about 30%; note: 0% is about no effect; the text of the record puts the active cut at 80%
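Tetracycline-induced TRPML1-DL cells are seeded and incubated overnight before loading with a no-wash Ca2+ dye and quencher. Agonist activity is taken from the 110 s fluorescence read following compound pin-transfer on an FDSS, before EC80 54-4 challenge.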
Six1-Eya2 blk: inhibitors of human Six1/Eya2 interaction; Q15475+O00167; AlphaScreen GST-Six1/His-Eya2 binding, biochemical; active compounds read low; control for the full effect not named in the record; activity change, % (concentration not given with the values); hit rate 0.56% among 360,000; AID 651725; in the data active = activity change below about -65%; inconclusive = about -30% to -65%; inactive = above about -30%; note: % is set by controls: 0 for no effect and ±100 for the full control effect
Target sequence (O00167 whole entry, looked up): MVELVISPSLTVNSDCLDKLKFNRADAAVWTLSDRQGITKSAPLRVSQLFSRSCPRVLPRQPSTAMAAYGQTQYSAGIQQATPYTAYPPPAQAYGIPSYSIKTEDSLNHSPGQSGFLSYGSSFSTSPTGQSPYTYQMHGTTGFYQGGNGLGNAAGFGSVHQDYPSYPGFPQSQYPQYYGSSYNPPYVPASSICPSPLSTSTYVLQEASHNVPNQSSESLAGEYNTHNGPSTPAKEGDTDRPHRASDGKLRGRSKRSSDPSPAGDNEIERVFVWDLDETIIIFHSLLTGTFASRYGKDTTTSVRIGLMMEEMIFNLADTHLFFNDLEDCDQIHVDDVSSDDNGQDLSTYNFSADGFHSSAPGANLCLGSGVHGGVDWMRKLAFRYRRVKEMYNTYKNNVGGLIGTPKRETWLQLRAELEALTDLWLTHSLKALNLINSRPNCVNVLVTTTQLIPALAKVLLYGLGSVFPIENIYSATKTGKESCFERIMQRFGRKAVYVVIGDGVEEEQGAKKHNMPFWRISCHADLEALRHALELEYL
Target sequence (Q15475 whole entry, looked up): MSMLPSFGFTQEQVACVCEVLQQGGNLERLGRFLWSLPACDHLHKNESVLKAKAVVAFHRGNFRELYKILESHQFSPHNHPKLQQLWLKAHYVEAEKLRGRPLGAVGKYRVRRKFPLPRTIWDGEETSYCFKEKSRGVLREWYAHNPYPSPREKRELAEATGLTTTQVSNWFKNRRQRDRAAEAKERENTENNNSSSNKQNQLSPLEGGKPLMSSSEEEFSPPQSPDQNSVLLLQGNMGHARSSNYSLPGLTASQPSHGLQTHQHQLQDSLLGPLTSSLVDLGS
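Compounds are tested against tagged Six1 and Eya2 proteins bridged by glutathione donor and nickel acceptor beads; after a one-hour incubation at 37 °C without light, AlphaScreen emission is recorded.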
* = called active by the depositor; ? = inconclusive; nt = no result given; [ ] = another dose, or the depositor's remark.

Order of results – PINK1 modulator, TRPML1 blocker, D2 ag, CtBP-E1A blk, TRPML1 ag, Six1-Eya2 blk
O=C(CN1C(=O)NC2(CCCC2)C1=O)Nc1nc(-c2ccc(F)cc2)cs1
→ -0.6%, 4, -2.3, 2, 1.4, 0
Cc1cc(NC(=O)CSc2ccc3ccccc3c2)no1
→ 9.1%, 5, 3.8, -3, 1.8, -6
COc1cc2c(C(F)(F)F)c(-c3ccc(C#N)cc3)oc(=O)c2cc1OC
→ 1.1%, -4, -1.2, 3, -0.1, 1
COc1ccc(NC(=O)CN2CCCC2c2cccs2)cc1S(=O)(=O)N1CCCCC1 (configuration not stated)
→ 0.3%, 70, -1.1, -5, 3.0, -10
O=C(NN=C1CCCC1)c1ccc([N+](=O)[O-])cc1
→ 1.1%, 0, -1.1, 10, -0.4, 1
O=C(NC1CC1)C1CCN(C2CCN(C(=O)CCOc3ccccc3)CC2)CC1
→ 3.7%, -3, -3.5, -11, 0.1, 7
OCC1CCCN1C(=S)Nc1ccccc1 (configuration not stated)
→ 6.6%[38.3 µM], 4, -2.2, 0, 0.5, 5
CC(=O)n1c(-c2ccccc2)c(CO)c2ccccc21
→ 0.8%, 0, -2.0, nt, -0.6, -4
O=C(NCc1ccco1)C(c1ccncc1)N(C(=O)Cn1nnc2ccccc21)c1ccccc1 (configuration not stated)
→ -1.1%, 6, 1.5, 4, -0.6, -9
CC(C)(C)OC(=O)N1CCNc2ccccc2C1
→ -1.1%, 2, -4.3, -3, -0.9, 0
O=C(NCc1nc2ccccc2[nH]1)C1=C[C@@H](c2ccccc2)C[C@@H](OCCCCO)O1
→ -0.7%, 0, -3.9, 0, 0.0, -2
NC(=O)N[C@@H](Cc1c[nH]c2ccccc12)C(=O)OCC(=O)N1CCCCC1
→ -0.5%, -2, -2.6, -1, -0.4, 0
COc1ccc(N2C(=O)CSC2c2cccs2)cc1 (configuration not stated)
→ 1.6%, -3, -2.4, 5, 0.2, 5
O=C(O)CCN1C(=O)C2C3CC(C2C1=O)C1C(c2ccccc2)c2sc(=O)[nH]c2SC31 (configuration not stated)
→ 2.8%, -10, -3.4, nt, 0.7, 4
Cc1ccc(C(C)NC(=O)C2CCCC2)cc1C (configuration not stated)
→ 1.7%, nt, 6.0, nt, nt, 4
Cc1c(C2C(C#N)=C(N)OC3=C2C(=O)CCC3)cnn1C (configuration not stated)
→ ?, -12, 4.0, 13, 0.2, 5
COc1cc(OC)cc(C(=O)OCn2nnc3ccccc3c2=O)c1
→ 0.3%, 4, -4.6, -1, 0.8, 1
CC(C)CCOP(=O)(c1ccc(N(C)C)cc1)C(O)c1c(Cl)cccc1Cl (configuration not stated)
→ -1.2%, -7, -0.9, nt, 1.9, -1
O=C(NC12CC3CC(CC(C3)C1)C2)c1ccccc1O
→ 24%, 6, -2.5, 3, 1.2, 3
O=C(COc1ccccc1)N1CCN(c2ncccn2)CC1
→ 1.0%, 9, -2.9, 59, 0.3, 6
CCOC(=O)C(C#N)C(c1cccnc1)c1c(C)[nH][nH]c1=O (configuration not stated)
→ -1.6%, 6, -3.0, 6, 0.1, -3
Cc1ccc(/C=N/n2c(-c3cccnc3)n[nH]c2=S)s1
→ -0.6%, -22, -3.4, -1, 0.3, 0
COC(=O)c1ccc(NC(=O)COc2ccc3c(c2)OCO3)cc1
→ 0.9%, 3, -2.9, -20, -0.4, -3
CCOC(=O)c1ccc(NC(=O)CCc2c(C)nc3c(-c4ccc(F)cc4)c(C)nn3c2C)cc1
→ 1.1%, 2, nt, nt, -0.3, nt
O=C(O)Cc1ccc(C(=O)CSc2ccccc2)s1
→ -1.4%, -17, -1.3, nt, 0.6, 3
Cn1c2ccccc2c2nnc(SCC(N)=O)nc21
→ -0.4%, -11, -0.9, nt, 1.6, -3
CN(C)c1cccc2c(S(=O)(=O)N3CCOCC3)cccc12
→ -0.1%, 8, 2.6, 10, -1.4, 29
COc1ccc(-c2nn3c(=O)cc(CN4CCN(S(=O)(=O)c5ccc(C)cc5)CC4)nc3s2)cc1
→ -0.1%, 14, nt, nt, -0.4, nt
Nc1cc(=O)[nH]c(SCC(=O)Nc2cc(S(=O)(=O)N3CCCCCC3)ccc2Cl)n1
→ 7.7%, 8, -1.8, -5, -0.2, 35
CC(C(=O)NC1=NCCS1)(C(F)(F)F)C(F)(F)F
→ 3.8%, -26, 4.2, -1, 0.6, 14
Cc1cc(C)n(-c2cccc(C(=O)O)c2)n1
→ -1.3%, 10, 2.6, 3, 0.6, 6
Cc1ccc(CSc2nc(-c3ccc(C(C)(C)C)cc3)nc3cc(=O)[nH]n23)cc1
→ 1.4%, 6, nt, nt, -0.5, nt
COCCNC(=O)C1(C)CCCN(C(=O)c2ccc3ccccc3c2)C1 (configuration not stated)
→ 2.1%, nt, -4.4, 4, -0.9, 2
C/C(=N\NC(=O)C(N)=O)c1cccc([N+](=O)[O-])c1
→ 2.0%, 2, -0.8, -2, 0.0, -7
c1ccc(-c2noc(C3CCCCC3)n2)nc1
→ -0.7%, -18, -2.0, 8, 0.2, 7
CC1(C)CC(=O)C(C=NCCN2CCN(C(=S)Nc3ccccc3)CC2)=C(O)C1
→ -0.7%, 8, -2.4, 6, 0.0, -2
Cc1ccc(C)c(S(=O)(=O)N2CCN(C(=O)CNC(=O)c3ccc4ccccc4c3)CC2)c1
→ -0.6%, 10, -2.6, 0, 1.6, -12
CO/C([O-])=N/c1c[n+](-c2ccc(Cl)cc2)no1
→ -4.2%, -8, -6.8, 3, -0.7, 4
CC(=O)c1ccc(N2CCN(CC(=O)Nc3cc(C)on3)CC2)cc1
→ -1.0%, -7, 1.0, -4, 0.1, 9
CCOC(=O)C(Oc1ccc(=O)[nH]n1)C(C)=O (configuration not stated)
→ -0.5%, -14, 1.5, 1, 0.0, 7
Cc1nc2c(C)cccn2c(=O)c1NC(=O)c1ccco1
→ -1.0%, -2, -0.2, 11, 0.4, 1
COc1ccc(C(=O)N/C(=C\c2ccco2)C(=O)OCc2ccco2)cc1
→ 0.7%, -6, -4.2, 0, -0.6, -12
c1coc(-c2nc3n(n2)C2(CCCCC2)[C@@H]2CCCC[C@@H]2N3)c1
→ 5.0%, -4, nt, nt, 1.2, nt
Cc1oc2cc3oc(=O)c(CC(=O)NCCC(=O)O)c(C)c3cc2c1C
→ 3.4%, -6, 6.0, -12, 0.0, 3
CC(C)CC1NC(=O)N(CC(=O)c2ccc3c(c2)OCCO3)C1=O (configuration not stated)
→ -0.5%, -9, -1.1, 9, -0.1, -2
CCCN1CCC(NC(=S)Nc2ccc(OC)c(OC)c2)CC1
→ -0.8%, 2, -1.1, 0, 1.1, 9
COc1ccc(C(=O)NCc2cn3ccccc3n2)cc1
→ -1.3%, 3, -4.1, 3, 0.9, -2
CC(C)OC(=O)Cn1nnc(-c2ccccc2)n1
→ -0.8%, -4, -2.5, 6, 0.3, 7
COc1cccc(CNC(=O)C2CCN(S(=O)(=O)c3ccc(C)cc3)CC2)c1
→ -1.6%, -6, 0.7, 1, -0.6, 0
Cc1ccc2c(CC(=O)Nc3nnc(C(C)C)s3)coc2c1C
→ 4.7%, 0, nt, nt, -0.4, nt
CCc1ccc(C2C(=O)c3ccccc3C2=O)cc1
→ 0.5%, 6, 0.2, 7, -0.3, 6
Cn1ccnc1Sc1nc2c(c(=O)n(C)c(=O)n2C)n1C
→ -0.6%[38.3 µM], -11, 0.7, 8, 0.3, 5
CC[C@@]1(C(=O)OC)N[C@H](CN(C)S(=O)(=O)c2ccc(-c3ccccc3)cc2)[C@@H]2C(=O)N(Cc3ccccc3)C(=O)[C@@H]21
→ 1.8%, -2, -0.9, 1, 0.5, -1
O=C(O)/C=C/C(=O)N(Cc1ccccc1)Cc1ccco1
→ 0.0%, 7, 2.3, 4, 2.5, -1
Cc1ccc(NC(=O)[C@@H]2O[C@H](CO)[C@H](O)[C@H](O)[C@H]2O)cc1C(F)(F)F
→ 0.9%, nt, -6.8, 6, -0.2, 7
Cc1ccc(/C=N/N2CCN(C3c4ccccc4-c4ccccc43)CC2)o1
→ 1.2%, -25, -2.2, nt, 1.9, -3
CC(=O)c1ccc(-c2ccc(C(=O)NC3CCCCCC3)o2)cc1
→ -1.1%, -7, 0.0, 2, -0.2, 1
O=C(OCC(=O)N1CCc2ccccc2C1)c1c(F)cccc1Cl
→ 0.7%, 4, -3.3, nt, -0.3, -1
Cc1oncc1C(=O)NC1CCCCC1
→ 1.6%, 5, -6.8, 4, -1.0, 3
Cc1cccc(-c2nc(CN3CCCC(C(=O)NCCc4ccc(Cl)cc4)C3)c(C)o2)c1 (configuration not stated)
→ -1.5%, -18, nt, nt, 1.3, nt

(continued)
Order of results – PINK1 modulator, TRPML1 blocker, D2 ag, CtBP-E1A blk, TRPML1 ag, Six1-Eya2 blk
COc1cc(/C=C/C(=O)O)cc(S(=O)(=O)NCc2ccco2)c1OC
→ -0.5%, -8, -0.3, -1, -1.4, -10
CCN(CC)S(=O)(=O)c1ccc(-c2nnc(SCC(=O)N3c4ccccc4CC3C)o2)cc1 (configuration not stated)
→ 0.7%[38.3 µM], -17, 0.6, 32, 1.7, 23
Cc1cc2ccccc2n1-c1ccc(C(=O)N2CCCCC2)s1
→ 0.1%, 34, nt, nt, 0.9, nt
Cc1ccc2c(c1)N(CCC(=O)NCCCN1CCCC1)C(=O)CO2
→ 1.5%, -3, 2.9, 11, -0.5, 4
CCN(c1ccc(OC)cc1)S(=O)(=O)c1ccc2[nH]c3c(c2c1)CCCCC3
→ 25µM*, -3, nt, nt, 3.3, nt
CC1=NN(C(=O)c2c(Br)cnn2C)C(O)(C(F)(F)F)C1 (configuration not stated)
→ -0.7%, -17, -0.8, 4, -0.7, 0
CCS(=O)(=O)N1CCN(Cc2c[nH]c3ccccc23)CC1
→ 1.3%, 26, 0.7, 2, 0.1, 1
CCCSc1nnc2n(C)c(=O)c3c4c(sc3n12)CCC4
→ 0.1%, 3, -6.2, 0, -1.1, -5
Cc1cccc2cc(CN(CC3CCCO3)C(=O)NC3CCCCC3)c(=O)[nH]c12 (configuration not stated)
→ -2.1%[38.3 µM], 5, -1.6, 8, -0.4, -1
COc1cccc(-c2cc(C(=O)Nc3cccnc3)no2)c1
→ 3.2%, 6, -0.3, 4, -0.3, 3
CCOC(=O)c1c(C)n(-c2ccc(OC)cc2)c2c(C/C(C)=N/O)c(Br)c(OC)c(O)c12
→ -2.5%, 21, 0.3, -1, 0.1, 8
Nc1nnc(SCC(=O)Nc2ccc(N3CCOCC3)c(Cl)c2)s1
→ 1.4%, 1, 0.5, -4, 0.4, 5
CC(=O)c1ccc(NC(=O)CSc2nc3c(=O)n(C)c(=O)n(C)c3n2C)cc1
→ 2.0%, -11, nt, nt, 1.0, nt
Cc1cc(C)c(C(=O)Nc2ccccc2)c(CC(C)(C)C(=O)O)c1
→ -2.2%, -20, -0.9, -12, -0.2, 0
O=C(Cn1ncc2c1-c1ccccc1OC2)N1CCN(c2ccccc2F)CC1
→ -0.6%, 23, nt, nt, -0.3, nt
Cc1cc(=O)oc2cc(OCC(=O)OCc3nnc(-c4ccccc4)o3)ccc12
→ 2.0%, -5, -1.4, 0, -0.5, -1

Some entries already given with just D2 ag:
SMILES,D2 ag
COc1ccc(C(=O)NCc2cn3ccccc3n2)cc1,-4.1
CC(C)OC(=O)Cn1nnc(-c2ccccc2)n1,-2.5

Compound activity from PubChem BioAssay.
